NPR1 antag – Natriuretic polypeptide receptor (hNpr1) antagonism - Primary qHTS; 76,000 compounds, 1.6% hits; Potency, µM (doses to about 46.3 µM), for inactives: at the top dose activity change, negative = inhibition, most hits filed as inhibitors; HEK293 hNpr1 GloSensor cGMP, ANP-stimulated luminescence; Atrial natriuretic peptide receptor 1 (Homo sapiens), P16066; active = well fitted inhibition curve with a large enough effect; inconclusive = small, poorly fitted or top-dose-only effect; inactive = no such curve, though single readings can be large or run the other way;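 also: nearly all actives have a fitted effect of over 60% in size; nearly all hits also lower the signal before the agonist is added; a reference antagonist and vehicle were the controls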
Target sequence (P16066 whole entry, looked up): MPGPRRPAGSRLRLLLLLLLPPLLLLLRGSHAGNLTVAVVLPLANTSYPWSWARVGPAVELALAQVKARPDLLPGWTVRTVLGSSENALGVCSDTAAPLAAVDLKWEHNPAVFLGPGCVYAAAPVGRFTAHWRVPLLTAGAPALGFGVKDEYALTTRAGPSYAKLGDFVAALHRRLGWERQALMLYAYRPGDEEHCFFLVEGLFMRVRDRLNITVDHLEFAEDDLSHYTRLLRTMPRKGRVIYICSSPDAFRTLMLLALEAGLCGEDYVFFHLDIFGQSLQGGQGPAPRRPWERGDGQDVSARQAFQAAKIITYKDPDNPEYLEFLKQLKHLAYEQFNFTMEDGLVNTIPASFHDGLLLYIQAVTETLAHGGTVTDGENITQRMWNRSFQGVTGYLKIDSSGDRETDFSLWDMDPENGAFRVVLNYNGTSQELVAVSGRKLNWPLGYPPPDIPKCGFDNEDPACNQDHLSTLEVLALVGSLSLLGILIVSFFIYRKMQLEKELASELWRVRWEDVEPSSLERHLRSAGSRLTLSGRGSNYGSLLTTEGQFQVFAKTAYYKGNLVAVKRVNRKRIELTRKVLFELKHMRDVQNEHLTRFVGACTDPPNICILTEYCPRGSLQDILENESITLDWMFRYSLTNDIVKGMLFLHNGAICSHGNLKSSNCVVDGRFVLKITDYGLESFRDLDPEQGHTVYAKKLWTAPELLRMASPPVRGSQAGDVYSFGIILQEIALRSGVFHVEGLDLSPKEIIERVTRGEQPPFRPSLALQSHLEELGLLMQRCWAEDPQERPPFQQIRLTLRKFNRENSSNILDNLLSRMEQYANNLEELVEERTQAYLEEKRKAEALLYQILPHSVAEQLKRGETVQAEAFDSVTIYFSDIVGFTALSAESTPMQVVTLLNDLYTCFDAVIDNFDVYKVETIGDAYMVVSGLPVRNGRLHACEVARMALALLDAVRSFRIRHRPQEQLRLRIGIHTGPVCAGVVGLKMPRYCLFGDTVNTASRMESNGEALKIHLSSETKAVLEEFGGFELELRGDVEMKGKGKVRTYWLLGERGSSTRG
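Compound pre-incubated 30 min at room temperature on GloSensor-loaded HEK293 cells stably carrying hNpr1 and the pGS-40F cGMP biosensor. Stimulation uses hNppA at 0.1 nM final; luminescence is taken at baseline and 20 min post-agonist.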
The depositor's hits bear a star; ? = inconclusive; & = joins results of further samples; [ ] = another dose, or the depositor's remark. % is scaled to controls: 0 for no effect and ±100 for the full control effect; potency is read from the fitted curve at half-maximal effect.

| structure | NPR1 antag |
| --- | --- |
| O=S(=O)(NC1CCc2nnc(C3CC3)n2CC1)c1ccc2c(c1)OCCO2 (configuration not stated) | 4% |
| Cc1onc(C(=O)NCC2Cn3cccc3CN2C)c1CN1CCCCC1 (configuration not stated) | -1% |
| Cc1ccc2c(c1)nc1n2[C@@H](CNCc2ccccc2)COC1 | ? |
| O=C(NCCN1CCCCC1)c1cccnc1N1CC2CC(C1)[C@H]1CCCC(=O)N1C2 (some centres not stated) | 2% |
| CN(CC1CCOCC1)S(=O)(=O)Cc1cccc(Cl)c1 | 0% |
| CCOc1ccc(-c2cc3c(=O)n(CCNC(=O)c4ccc(C)cc4)ccn3n2)cc1 | 1% |
| COC(=O)[C@@H]1C[C@@H](NC(=O)C2CCN(C(=O)CC(C)C)CC2)CN1C | 1% |
| O=C(CCc1cc2n(n1)CCCNC2)Nc1ccccc1CCc1ccccn1 | -2% |
| O=C1c2cnc(-c3ccncc3)nc2OCCN1c1ccccc1 | -5%[70.6 µM] |
| Cc1cn2nc(C(=O)N3CCC(NC(=O)C(C)c4ccccc4)CC3)cc2c(=O)[nH]1 (configuration not stated) | 1% |

Following part
| structure | NPR1 antag |
| --- | --- |
| O=C(N[C@H](Cc1ccccn1)C1CC(O)C1)c1scc2c1OCCO2 (some centres not stated) | 2% |
| Cc1ccc(-c2ccc3nnc(CNC(=O)c4cccnc4)n3n2)cc1 | 8% |
| CN(C(=O)Cc1cccc(Cl)c1)C1CCc2ccccc21 (configuration not stated) | 0%[70.6 µM] |
| Cc1ccc(C(=O)N2CCC3(CC2)CC(N(Cc2ccc(F)cc2)C2CC2)CCO3)cc1 (configuration not stated) | ? |
| Cc1ccc(CNC(=O)N2CCCCCCNC(=O)[C@@H]3CCC[C@@H]32)cc1 | 4% |
| COc1cc(NC(=O)c2cnc(-c3ccc(F)cc3)nc2-c2ccncc2)cc(OC)c1 | -20% |
| Cc1ccc(-c2cc(-c3cccnc3)nc3c(C)noc23)c(C)c1 | 0%[70.6 µM] |
| CCc1ccccc1NC(=O)N1C[C@@H](F)C[C@H]1C(=O)N1CCCCC1 | -1% |
| CCC(C)NC(=O)c1ccc(CN2C(=O)NC3(CCS(=O)(=O)CC3)C2=O)cc1 (configuration not stated) | -1% |
| CCO[C@H]1CN(C(=O)c2ccc(Oc3ccccc3)o2)C[C@@H]1O | 7% |

Continuation.
| structure | NPR1 antag |
| --- | --- |
| O=C1NCCCCCN(C(=O)NCc2ccc(F)cc2)[C@H]2CCCC[C@@H]12 | 7% |
| c1cncc(Nc2cc3c(cn2)CN(CC2CCCCC2)CCN3)c1 | 6%[70.6 µM] |
| O=C1NCCCCCCN(S(=O)(=O)c2cccc3cccnc23)[C@H]2CCCC[C@@H]12 | -1% |
| CNC(=O)CCn1ncc2cc(OCc3ccccc3-c3cccc(OC)c3F)ccc21 | -16%[70.6 µM] |
| CC(=O)Nc1ccc(C(=O)NC[C@@H]2C=C(C)[C@H](CC(=O)NCc3ccc(C#N)cc3)C[C@H]2C(C)C)cc1 | ? |
| O=C(c1cc(C2CC2)[nH]n1)N1CCOC(Cc2cccc(C(F)(F)F)c2)C1 (configuration not stated) | -5% |
| O=C1COc2ccc(NCc3cccs3)nc2CN1Cc1ccc(F)cc1 | ? |
| O=C1NCCCCCN(S(=O)(=O)c2ccccc2)[C@H]2CCCC[C@@H]12 | -3% |
| COc1ccc(C(=O)N2CCN(c3cc(-c4ccc(Cl)cc4)[nH]n3)CC2)cc1F | 11µM* |
| Cc1cnc(C2CCC2)n1CCN | 6% |

Other structures.
| structure | NPR1 antag |
| --- | --- |
| Cc1cccc(CN2C[C@@H]3C(=O)N(C)C(=O)[C@@H]3C2)c1 | 4% |
| O=C1[C@@H]2C[C@@H](O)CN2C2(CN(Cc3ccccn3)C2)C(=O)N1Cc1ccccc1Cl | -3%[70.6 µM] |
| COc1ccc(-c2nc(C3CC3)nc3c2CN([S+](=O)([O-])c2onc(C)c2C)CC3)cc1 | 6% |
| CN1C(=O)CCCCC1C(=O)NCc1ccncc1 (configuration not stated) | 4% |
| CCc1ccccc1S(=O)(=O)N1CCN(C2CCN(Cc3cccnc3)C2=O)CC1 (configuration not stated) | -20% |
| O=C(NCc1ccc(C(=O)N2CCCCC2)cc1)C1NCCc2[nH]cnc21 (configuration not stated) | 9% |
| COCCNC(=O)[C@@H]1C[C@H](Oc2ccccc2)CN1S(=O)(=O)Cc1ccccc1 | 0% |
| O=C1NCCCCCCN(C(=O)CCCc2ccccc2)[C@H]2CCCC[C@@H]12 | 3% |
| Cc1ccc(CN2C(=O)COC[C@H]2C(=O)NCc2cccc(F)c2)cc1 | 5% |
| O=C(N[C@H]1C[C@H]2C(=O)Nc3ccc(-c4ccsc4)cc3C(=O)N2C1)c1ccccc1 | -1%[70.6 µM] |

The list continues:
| structure | NPR1 antag |
| --- | --- |
| NC(=O)C1(c2nc(C3CCOC3)nn2CC2CCCCC2)CC1 (configuration not stated) | 1% |
| Cc1cc(=O)n(CC(=O)Nc2ccc(F)cc2)c(N2CCc3ccccc3C2)n1 | -23% |
| COc1ccc(CCNC(=O)c2ccc3nc(C)cn3c2)cc1 | 4% |
| Cc1noc(C)c1-c1cn(CCNS(=O)(=O)c2ccc(Cl)cc2)nn1 | 5% |
| COCCn1c2c(c(=O)n1-c1ccccc1)CCN(C(=O)c1cc3ccccc3n1C)C2 | -1%[70.6 µM] |
| COc1ccc(CN2CCn3c(nn(-c4ccc([N+](=O)[O-])cc4)c3=O)C2)cc1 | 11µM* |
| O=C(O)C[C@@H]1CCN(C(=O)Cc2ccccc2)C[C@@H]1CCN1CCN(c2ccccn2)CC1 | 2% |
| C[C@H](c1ccccc1)N1C(=O)[C@@H]2CN(C(=O)CC(C)(C)CC(=O)O)CCN2C1=O | -4%[70.6 µM] |
| COc1ccccc1CNC(=O)c1cc2c(N3CCSCC3)nc(C)cn2n1 | 7% |
| CCOc1ccccc1C(=O)N1CCC2(CC1)NC(=O)N(Cc1ccccc1)C2=O | 3% |

The listing continues.
| structure | NPR1 antag |
| --- | --- |
| COc1ccc(S(=O)(=O)N2CCC(c3noc(-c4ccncc4)n3)C2)cc1 (configuration not stated) | -18% |
| O=C1CC(c2ccccc2)N(CC2CCCCC2)CCCCCCN1 (configuration not stated) | 0% |
| O=C(NCC1Cn2cccc2C(=O)N1Cc1ccccc1)c1ccc(F)cc1 (configuration not stated) | -13% |
| CCCN(CC1CCOC1)C(=O)Nc1c(F)cccc1F (configuration not stated) | 6% |
| COc1ccc(-c2nccn3cc(C(=O)NCCc4ccccn4)nc23)cc1 | -14% |
| CCCNc1cc(N2CCC(CCC(=O)Nc3ccc(C)cc3)CC2)ncn1 | -25% |
| CNc1nc2c(c(C(=O)N3CCCC3)n1)CN(C(=O)Cn1nc(C)cc1C)CC2 | 10% |
| CCNC(=O)[C@@H]1CCCN1[C@@H](C(=O)NC)c1cccc(O)c1 | 7%[70.6 µM] |
| CCn1nccc1C(=O)N1CCCC(c2nn[nH]n2)C1 (configuration not stated) | 15% |
| COCCNC(=O)c1nc2nc(-c3ccccc3)c(Cl)cc2n1C | -1%[70.6 µM] |

Entries listed so far marked active in NPR1 antag:
| structure | NPR1 antag |
| --- | --- |
| COc1ccc(C(=O)N2CCN(c3cc(-c4ccc(Cl)cc4)[nH]n3)CC2)cc1F | 11µM* |
| COc1ccc(CN2CCn3c(nn(-c4ccc([N+](=O)[O-])cc4)c3=O)C2)cc1 | 11µM* |

Next entries
| structure | NPR1 antag |
| --- | --- |
| CNC(=O)C1CN(c2ccc(F)cc2)C(=O)N1 (configuration not stated) | 20%[70.6 µM] |
| Cc1ccc(C(=O)N2CC(c3noc(COc4ccccc4C)n3)C2)cn1 | -3% |
| O=[N+]([O-])c1cccc(-c2noc([C@@H]3C[C@@H](O)CN3Cc3cccc(OC(F)(F)F)c3)n2)c1 | -1% |
| CCC(=O)N1CCN(C2CCN(Cc3ccccn3)C2=O)CC1 (configuration not stated) | 2% |
| Cc1ccc(C2Cn3nnc(-c4nc(-c5ccccc5Br)no4)c3CO2)c(C)c1 (configuration not stated) | 5% |
| O=S1(=O)CCC(S(=O)(=O)Nc2ccc(F)cc2)C1 (configuration not stated) | 3% |
| Cc1cc(C(=O)N2C[C@@H](COc3ccccc3)[C@H](C(N)=O)C2)n(C)n1 | -13% |
| CN1C[C@H](NC(=O)Nc2ccccc2)CCC[C@@H](C(=O)NCc2cc(F)cc(F)c2)CC1=O | 0% |
| COCCN1C(=O)CS(=O)(=O)C12CCN(C(=O)c1cc(OC)cc(OC)c1)CC2 | -2% |
| COCCCNC(=O)N1CCCCC1c1nc(CCOc2cccc(C)c2)no1 (configuration not stated) | -14% |

The list goes on; it opens with the 3 that closed the last part.
| structure | NPR1 antag |
| --- | --- |
| CN1C[C@H](NC(=O)Nc2ccccc2)CCC[C@@H](C(=O)NCc2cc(F)cc(F)c2)CC1=O | 0% |
| COCCN1C(=O)CS(=O)(=O)C12CCN(C(=O)c1cc(OC)cc(OC)c1)CC2 | -2% |
| COCCCNC(=O)N1CCCCC1c1nc(CCOc2cccc(C)c2)no1 (configuration not stated) | -14% |
| CN1CC(=O)N(c2ccc(Cl)cc2)Cc2c1ncnc2N1CCOCC1 | -18% |
| COc1ccc(C2Cn3nnc(-c4nc(-c5ccc(SC)cc5)no4)c3CO2)cc1 (configuration not stated) | -2% |
| O=C1c2cnc(-c3cccc(CO)c3)nc2OCCN1c1cccc(C(F)(F)F)c1 | ? |
| Cc1ccc(C(=O)Nc2ccc3c(N4CCCCC4)ncnc3c2)s1 | -6% |
| CCOCCOC1CCN(C(=O)c2ccco2)CC1 | 0% |
| c1cc(CN2CCC(Oc3nccnc3N3CCOCC3)C2)ccn1 (configuration not stated) | -4% |
| O=S(=O)(NC[C@H]1O[C@@H](CO)[C@@H](O)[C@H]1N1CCOCC1)c1cccs1 | 8%[70.6 µM] |
| COC(=O)c1cn([C@H]2CO[C@H]3[C@@H]2OC[C@@H]3NC(=O)NCc2ccccc2)nn1 | -10%[70.6 µM] |
| COc1ccc(CN(C)Cc2ccoc2)cc1OCC(O)CN1CCCCC1 (configuration not stated) | 8% |
| Cc1cccc(CC(=O)N2CCC(c3nn(C)c4c3COCC4)CC2)c1 | -6% |

More structures
| structure | NPR1 antag |
| --- | --- |
| Cc1ccc(C(=O)N2CCCC(c3nn(-c4ccccc4)c(=O)[nH]3)C2)cc1 (configuration not stated) | 9%&0% |
| CC(C)c1noc(-c2cn(C3CCN(C(=O)c4ccccc4Cl)CC3)nn2)n1 | -19% |
| CSCC(=O)N[C@H]1CCN2C(=O)N(c3ccc(C(C)C)cc3)C(=O)[C@@H]2C1 | -1%[70.6 µM] |
| Cc1ccc(CC(=O)N2c3ccccc3CC2c2nnc(C3CCOCC3)o2)cc1 (configuration not stated) | -1% |
| COCCOC1CCOC2(CCN(C(=O)Nc3cccc(F)c3)CC2)C1 (configuration not stated) | -2% |
| O=C(NCCc1ccc(F)cc1)C1CCCN(c2nc3ncccc3o2)C1 (configuration not stated) | 11% |
| Cc1noc([C@H]2CCN(C(=O)NCc3ccccc3)C[C@H]2NC(=O)C2CCOCC2)n1 | -14% |
| CCCC(=O)N1CCc2cn(C)c3cccc(c23)C1 | -3% |
| CNC(=O)[C@@H]1CN(C(=O)Cc2cc(C)no2)C[C@H]1COC | -1% |
| CN1C(=O)[C@@H]2C[C@@H](O)CN2C2(CN(Cc3ccc(F)c(F)c3)C2)C1=O | 0%[70.6 µM] |

Later entries.
| structure | NPR1 antag |
| --- | --- |
| COCc1nnc2n1CCC(NC(=O)CCCc1c[nH]c3ccccc13)CC2 (configuration not stated) | 5% |
| CCc1c(C)nn(CC(=O)NCC2CCN(c3cnn(C)c(=O)c3)C2)c1C (configuration not stated) | 1% |
| COCCNc1ccc(-c2noc([C@@H]3CCCN3Cc3cc(OC)c(OC)c(OC)c3)n2)cn1 | 8% |
| CCOCCCNC(=O)N1C[C@@H](Oc2cccnc2)C[C@@H]1C(=O)N1CCOCC1 | 1% |
| CC(C)CN[C@H]1CO[C@H]2[C@@H]1OC[C@@H]2Nc1nccc(C(C)(C)C)n1 | ? |
| COCCCN1C(=O)N(Cc2ccccc2)C(=O)C12CCN(Cc1cccs1)CC2 | -2% |
| CN(C)c1ccc(CCNC(=O)[C@H]2CNC[C@H](C(=O)N3CCCC3)C2)cc1 | 4% |
| CC(C)CCN1CC2(CCCN(C(=O)CCn3cnnc3)C2)CCC1=O (configuration not stated) | 4% |
| Cc1ccnc(C(NC(=O)CCc2cc3n(n2)CCCNC3)C2CC2)c1 (configuration not stated) | 0% |
| Cc1ncoc1C(=O)N1CC[C@@H]2COCCN(Cc3ccncc3)[C@@H]2C1 | 5% |

The list goes on.
| structure | NPR1 antag |
| --- | --- |
| Cc1cn(CC(=O)N2CCN(c3cccc(Cl)c3)C(=O)C2)c(=O)[nH]c1=O | 1% |
| COCCNc1ncc(-c2ccc(NC(C)=O)cc2)c2c1OCC2 | 5%[70.6 µM] |
| Cn1cccc1CNC(=O)Cn1nc2c(cc1=O)CCCC2 | 11% |
| O=C1[C@H]2CN(Cc3ccc(F)cc3Cl)C[C@H]2C(=O)N1CCN1CCc2ccccc2C1 | -1% |
| O=C(CN1C(=O)COc2ccc(C(=O)COc3ccccc3F)cc21)NCc1ccco1 | -6% |
| CC1(C)[C@H](Cc2cc(CC3CCCCC3)on2)C[C@@H]1NC1CCOCC1 | 5%[70.6 µM] |
| Cc1ccc(-c2nocc2CCC(=O)N2CCC(Cc3ccccc3)CC2)cc1 | -21% |
| C=CCC1(CO)CCCN(CC(=O)NC2CCCCC2)C1 (configuration not stated) | 0% |
| COc1ccc(-c2ccc3c(c2)C(=O)N2CC[C@H](NC(=O)c4cccs4)[C@H]2C(=O)N3)c(OC)c1 | -18% |
| Cc1cnc(-c2ccccc2)n1C1CCCN(C(=O)c2ccnn2C)C1 (configuration not stated) | 0% |
| COc1ccccc1-c1ccnc(N[C@H]2CO[C@H]3[C@@H]2OC[C@@H]3NC(=O)c2ccccc2)n1 | -24%[70.6 µM] |

Assay outcomes as filed in PubChem.

A portion of the library, so the mix of outcomes need not match the whole.
